Screening results from PubChem.
Six1-Eya2 inh: inhibitors of human Six1/Eya2 interaction. Q15475+O00167. AlphaScreen GST-Six1/His-Eya2 binding, biochemical; stronger effect = lower value; control for the full effect not named in the record. activity change, % (concentration not given with the values). 360,000 tested, 0.56% active. AID 651725; in the data active = activity change below about -65%; inconclusive = about -30% to -65%; inactive = above about -30%; note: % is set by controls: 0 for no effect and ±100 for the full control effect
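GST-Six1 + His-Eya2 (5X stock: 250/500 nM); Tris pH 8.0, 300 mM NaCl, 0.05% BSA, 0.02% Tween 20; GSH donor/Ni acceptor beads; 1 h 37 °C dark; AlphaScreen readout.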
TRPML1 ag: activates the human TRPML1 channel; Q9GZU1; TRPML1-expressing cells, Ca2+ dye fluorescence, FDSS; host cell line not named in the record; reference of the full effect not given here; activation, % (no concentration beside the values); 410,000 tested, 0.12% active; in the data active = activation above about 50%; inconclusive = about 30% to 50%; inactive = below about 30%; note: 0% is about no effect; the text of the record puts the active cut at 80%
Target sequence (Q9GZU1 whole entry, looked up): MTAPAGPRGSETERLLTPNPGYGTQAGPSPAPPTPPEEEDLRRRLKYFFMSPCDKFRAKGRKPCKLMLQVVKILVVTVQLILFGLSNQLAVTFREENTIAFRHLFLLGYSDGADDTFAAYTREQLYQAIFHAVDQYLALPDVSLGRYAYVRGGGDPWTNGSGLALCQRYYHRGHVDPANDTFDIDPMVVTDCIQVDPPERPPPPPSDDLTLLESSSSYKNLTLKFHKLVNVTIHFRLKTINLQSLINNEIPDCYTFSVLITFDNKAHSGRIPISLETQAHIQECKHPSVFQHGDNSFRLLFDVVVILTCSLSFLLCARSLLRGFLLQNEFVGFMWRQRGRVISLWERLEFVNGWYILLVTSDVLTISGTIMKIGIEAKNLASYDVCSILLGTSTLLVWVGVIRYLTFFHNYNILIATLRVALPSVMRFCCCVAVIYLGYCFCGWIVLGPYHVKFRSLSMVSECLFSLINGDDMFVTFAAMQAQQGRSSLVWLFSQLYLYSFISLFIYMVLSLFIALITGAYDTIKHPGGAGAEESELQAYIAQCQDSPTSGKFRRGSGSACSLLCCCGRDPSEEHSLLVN
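Calcium fluorescence on an FDSS kinetic reader gave the read-out. Tet-induced TRPML1-DL cells were plated overnight, dye-loaded (Ca8 with quencher, 45-90 min, room temperature, dark), then read 110 s after compound addition, and again 110 s after 4uM final 54-4 (EC80).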
D2 PAM: potentiates the human D2 dopamine receptor allosterically; DiscoveRx D2 beta-arrestin cells, luminescence, 90 min; 100% = 57 uM dopamine signal; potentiation, % (concentration not given with the values); 360,000 tested, 0.23% active; P14416; AID 624464; active = potentiation of 50% or more; inconclusive = 30% to 50%; inactive = 30% or less;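 note: compound concentration not given in the record; tested on top of an EC20 dose of dopamine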
Target sequence (P14416 whole entry, looked up): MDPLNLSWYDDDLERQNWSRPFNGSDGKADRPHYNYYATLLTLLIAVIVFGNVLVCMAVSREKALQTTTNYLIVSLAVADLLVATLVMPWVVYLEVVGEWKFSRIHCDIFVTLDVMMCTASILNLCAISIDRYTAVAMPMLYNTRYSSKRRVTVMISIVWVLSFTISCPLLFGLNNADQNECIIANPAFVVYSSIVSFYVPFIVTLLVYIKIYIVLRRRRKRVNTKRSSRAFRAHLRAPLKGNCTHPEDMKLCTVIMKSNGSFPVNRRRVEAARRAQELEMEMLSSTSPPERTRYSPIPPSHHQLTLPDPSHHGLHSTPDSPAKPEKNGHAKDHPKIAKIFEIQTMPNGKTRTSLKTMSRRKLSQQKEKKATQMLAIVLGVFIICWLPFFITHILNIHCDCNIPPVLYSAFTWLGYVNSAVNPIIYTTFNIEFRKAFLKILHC
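D2 cells co-treated with compound plus 50 nM dopamine (EC20) for 90 min at 37 deg C to detect potentiation. Beta-arrestin recruitment was read as enzyme-fragment luminescence after 1 h at ambient temperature. Full response was set by 57 uM dopamine.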
D2 agonist: human D2 receptor agonism in beta-arrestin assay. AID 624465. 360,000 tested, 0.084% active. DiscoveRx PathHunter D2 beta-arrestin, luminescence, 90 min; 100% = 57 uM dopamine signal. activation, % (concentration not given with the values); in the data active = activation above about 40%; inconclusive = about 15% to 40%; inactive = below about 15%; note: compound concentration not given in the record; the text of the record calls up to 30% inactive
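Agonist mode: compounds alone added to overnight-plated D2 PathHunter cells for 90 min at 37 C, with 57 uM final dopamine (EC100) defining full response. Beta-arrestin recruitment detected by chemiluminescent reagent, read after 1 h at ambient temperature.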
PINK1 expr mod: PINK1 expression modulation; 410,000 tested, 0.2% active; Potency, µM (doses to about 76.6 µM), for inactives: top-dose activation (PINK1 increase), actives largely listed as activators; AID 624263; PINK1 immunofluorescence, high-content cytometry, 24 h; active = well fitted activation curve with a large enough effect; inconclusive = small, poorly fitted or top-dose-only effect; inactive = flat fitted curve, though single readings scatter; cell line not stated here;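 note: potency is the fitted concentration of half-maximal effect; % of control where 0% means no effect; nearly all actives have a fitted effect of over 65% in size; a mitochondrial uncoupler was the plate control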
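Measures PINK1 amount and localization on or inside mitochondria by immunofluorescence. Stable cells get compounds at 5 concentrations for 24 hours before fixation and staining; CCCP controls included.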
CtBP-E1A inh: blocks the CtBP interaction with E1A | AlphaScreen GST-E1A/His-CtBP binding, 1536-well; stronger effect = lower value; control for the full effect not named in the record | activity change, % (concentration not given with the values) | 340,000 tested, 0.49% active | AID 651724; in the data active means activity change below about -65%; inconclusive means about -30% to -65%; inactive means above about -30%; note: % is set by controls: 0 for no effect and ±100 for the full control effect
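Homogeneous bead-based format: GST-tagged E1A captured on glutathione donor beads, His-tagged CtBP on nickel acceptor beads; compounds precede bead addition by 2 h at 37 °C.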
An asterisk follows results filed as active; ? = inconclusive; / = not tested or not shown; & = joins results of further samples; [ ] = remark or other dose.

SMILES | Six1-Eya2 inh | TRPML1 ag | D2 PAM | D2 agonist | PINK1 expr mod | CtBP-E1A inh
O=C(O)C1CCCCC1C(=O)Nc1ccc(S(=O)(=O)N2CCCCCC2)cc1 (configuration not stated) | 13 | 2.0 | -2 | -6.8 | -1.0% | -15
Clc1cnc(Nc2cccnc2)c(Cl)c1 | 6 | 0.2 | -6 | -1.8 | 0.9% | -6
O=C(O)CC(C(=O)O)c1cn(Cc2ccccc2)c2ccccc12 (configuration not stated) | -4 | -1.1 | 0 | -1.0 | 0.7% | 0
CC(CCc1ccccc1)NC(=O)c1nnc(Cc2ccc(F)cc2)o1 (configuration not stated) | 7 | -1.3 | -5 | 8.2 | -0.3% | 4
Cc1cc[n+](-c2ccccc2)c2ccccc12 | 2 | 0.0 | 0 | 1.1 | 4.9% | 2
CCNC(=O)C1(C)CCCN(C(=O)C2(c3ccc(Cl)cc3)CCCC2)C1 (configuration not stated) | -1 | -0.9 | -8 | -5.0 | 1.7% | -2
CCCc1nnc(NC(=O)c2cccs2)s1 | 2 | 1.9 | -7 | -1.6 | -0.2% | -1
Cc1cc(C(=O)OCC(=O)Nc2ccccc2F)c(C)o1 | 2 | 0.9 | 4 | -3.1 | 0.5% | 0
O=C(CSc1nnc(Cc2ccccc2)n1-c1ccc(Cl)cc1)N1CCOCC1 | 0 | 1.0 | -8 | -0.3 | 16%[38.3 µM] | 1
Cc1cc(NC(=O)Cc2cc(F)cc(F)c2)no1 | 1 | -0.8 | -6 | -3.6 | 0.5% | 5
CCc1nc2ccc(C(=O)N(C)CCN(C)C)cn2c1N(C)Cc1cc2ccccc2s1 | -12 | 0.3 | -26 | -6.3 | 1.1% | -8
Cc1cc2nnc(SCC(=O)NCC3CCCO3)n2c2ccccc12 (configuration not stated) | -14 | -0.1 | -31 | -3.5 | 2.1% | 4
CCOc1cc(-c2nc(-c3ccc(C)nc3OCC)no2)cc(OCC)c1OCC | 5 | 1.1 | -8 | -2.9 | ? | 3
O=C(CN1C(=O)C(=O)N(C2CCCC2)C1=O)Nc1cc(Cl)ccc1[N+](=O)[O-] | 4 | 0.4 | -7 | 4.7 | -2.5% | -8
Cc1cnc(C(=O)OCC(=O)Nc2ccc3c(c2)OCCO3)cn1 | -1 | -0.5 | -6 | -2.8 | -1.7% | 3
CCOC(=O)N1CCN(c2nnnn2-c2ccccc2)CC1 | -2 | -0.5 | -4 | -2.0 | 4.5% | 8
CCOc1ccc(C(=O)NCC(=O)OCc2c(F)cccc2Cl)cc1OCC | 11 | 6.3 | 3 | 6.2 | 9.6% | -2
O=S(=O)(c1ccc(S(=O)(=O)N2CCCC2)cc1)N1CCCCCC1 | -1 | 0.9 | -3 | -0.3 | 3.1%[38.3 µM] | 1
COc1cccc(C2NC(=S)NC(C)=C2C(=O)c2ccccc2)c1OC (configuration not stated) | -4 | 0.2 | -4 | -2.5 | 5.0% | 2
CCCC(=O)c1cc2cc(Cl)ccc2oc1=O | 9 | 0.3 | -1 | -0.3 | -0.8% | 7
Cc1c(C(=O)NCC(c2ccco2)N2CCCC2)sc2ccccc12 (configuration not stated) | -9 | -0.8 | -15 | 5.2 | 2.4% | -10
CCC1CCCCN1C(=O)CSC1=NN2CCCC(=O)N=C2S1 (configuration not stated) | 16 | 0.0 | 9 | -2.0 | 4.4% | 0
O=C(Nc1cccc(C(F)(F)F)c1)c1cccnc1N1CCCC1 | 4 | -0.8 | -17 | -13 | 0.5% | 1
CCOC(=O)CC(=O)CSc1nc2c(C)c(C)ccc2cc1C | 21 | 2.0 | -13 | 0.7 | -0.8% | 31

Structures listed so far containing a COOH group, in the order listed:
SMILES | Six1-Eya2 inh | TRPML1 ag | D2 PAM | D2 agonist | PINK1 expr mod | CtBP-E1A inh
O=C(O)C1CCCCC1C(=O)Nc1ccc(S(=O)(=O)N2CCCCCC2)cc1 (configuration not stated) | 13 | 2.0 | -2 | -6.8 | -1.0% | -15
O=C(O)CC(C(=O)O)c1cn(Cc2ccccc2)c2ccccc12 (configuration not stated) | -4 | -1.1 | 0 | -1.0 | 0.7% | 0

(list continues)
SMILES | Six1-Eya2 inh | TRPML1 ag | D2 PAM | D2 agonist | PINK1 expr mod | CtBP-E1A inh
O=C(NN=Cc1ccc(O)cc1O)c1ccccc1NS(=O)(=O)c1cccs1 | ? | 1.3 | -5 | -0.8 | -1.0% | -80*
Cc1ccc2nc(N3CCN(c4cccc(C)c4C)CC3)c3nnnn3c2c1 | 12 | -0.1&1.7 | 12 | 0.3 | -0.6%&-0.1% | 10
Cc1ccc(CNC(=O)CSc2nnnn2C)cc1 | -1 | 0.4 | -33 | -4.7 | / | -1
CCN(CC)c1cc(C)c2cc(NC(=O)c3cccs3)ccc2n1 | 0 | -0.5 | -36 | -4.2 | 6.0% | -1
CC(=O)c1ccccc1OC(=O)c1ccc(-c2ccccc2)cc1 | 2 | 2.9 | -6 | -4.7 | -1.8% | /
COc1ccc(/C=c2\s/c(=C\C(=O)C(C)(C)C)[nH]c2=O)cc1O | -4 | 0.6 | 0 | 3.1 | 0.5% | 9
CCOc1ccc(N2CC(C(=O)OC)CC2=O)cc1 (configuration not stated) | 4 | -0.2 | -36 | -3.9 | -2.5% | -1
O=C(N/N=C/c1ccccn1)c1ccc([N+](=O)[O-])cc1 | -12 | 0.4 | 0 | -2.8 | 0.4% | -22
CCn1c(CNc2ccc(C)cc2)nnc1SCC(=O)NCc1ccccc1 | 18 | 0.8 | -18 | -3.6 | -2.6%[38.3 µM] | 38
COc1cccc(CN(C)CC(O)COc2cc(Cl)ccc2Cl)c1 (configuration not stated) | 2 | 0.5 | -5 | 0.8 | 9.6% | /
O=C(NCCC1=CCCCC1)C1CCN(S(=O)(=O)c2cccs2)CC1 | 5 | -0.4 | -15 | -3.0 | -1.1%[38.3 µM] | 5
O=C(O)C1CCCN1C(=O)OCC1c2ccccc2-c2ccccc21 (configuration not stated) | 9 | -0.6 | -13 | -4.2 | 4.4% | /

5 entries from above, arranged by the value under D2 PAM, ascending.
structure	D2 PAM
CCOc1ccc(N2CC(C(=O)OC)CC2=O)cc1 (configuration not stated)	-36
CCNC(=O)C1(C)CCCN(C(=O)C2(c3ccc(Cl)cc3)CCCC2)C1 (configuration not stated)	-8
Clc1cnc(Nc2cccnc2)c(Cl)c1	-6
O=C(O)C1CCCCC1C(=O)Nc1ccc(S(=O)(=O)N2CCCCCC2)cc1 (configuration not stated)	-2
O=C(N/N=C/c1ccccn1)c1ccc([N+](=O)[O-])cc1	0

Carrying on:
SMILES | Six1-Eya2 inh | TRPML1 ag | D2 PAM | D2 agonist | PINK1 expr mod | CtBP-E1A inh
COc1ccc(-c2nn(Cc3ccccc3)cc2C(=O)N2CCN(c3ccccn3)CC2)cc1OC | -2 | 0.7 | 8 | -0.6 | 4.4% | 6
CC(=O)Nc1ccc(-c2nn[nH]n2)cc1Cl | 4 | 0.5 | -2 | -2.4 | 0.4% | -2
CS(=O)(=O)N1CCN(C/C=C/c2ccccc2)CC1 | 9 | 1.8 | -2 | 1.2 | 0.0% | -2
CCOc1ccc(CN(CCO)CCO)cc1[N+](=O)[O-] | 32 | 0.5 | -8 | 3.1 | 0.5% | 2
CCOC(=O)C1CCCN(S(=O)(=O)c2ccccc2)C1 (configuration not stated) | -8 | -1.3 | -3 | -1.6 | -3.9% | -11
O=C(CNC(=O)c1ccc(Cl)cc1)NNc1c(F)c(F)cc(F)c1F | 1 | 1.1 | -4 | -1.4 | -1.4% | 4
CS(=O)(=O)c1ccc(Cl)c(NC(=O)COC(=O)c2ccc(F)cc2Cl)c1 | 21 | 1.3 | -8 | -2.2 | -1.6% | -17
OC(COC1CCCCC1)CN1CCN(c2ccccc2)CC1 (configuration not stated) | -2 | 0.0 | -5 | 3.8 | 0.2%[38.3 µM] | -2
O=C(NCC1CCN(C(=O)c2cccc([N+](=O)[O-])c2)CC1)c1cccc([N+](=O)[O-])c1 | -4 | 0.4 | -12 | 6.4 | -0.6% | -2
CCn1cc(C(=O)O)c(=O)c2cc(F)c(N3CCN(S(=O)(=O)c4ccc5c(c4)OCCO5)CC3)cc21 | 9 | 3.3 | -1 | -3.0 | 5.8% | 9
CN(C)c1nnnn1-c1ccc(Cl)cc1Cl | 5 | -0.7 | -3 | -3.1 | 4.4% | -2
OC1CCN(c2ncnc3c2nnn3Cc2c(F)cccc2Cl)CC1 | -8 | 0.5 | -5 | 3.1 | 0.4% | -2
Cc1csc2c(N3CCN(C(=O)Nc4ccccc4)CC3)ncnc12 | -25 | -0.2 | -6 | -0.7 | 4.4% | ?
Cc1nnc(NC(=O)c2nn(CC(C)C)c(=O)c3ccccc23)s1 | 4 | 1.6 | 0 | 1.1 | 0.6% | 5
COc1ccc(-c2cc(C(=O)OCC(=O)c3ccc(C)c([N+](=O)[O-])c3)c3ccccc3n2)cc1 | 13 | 0.4 | -3 | -8.2 | 0.5% | 7
Cc1c(C(=O)NNC(=S)Nc2cccc(Cl)c2)nnn1-c1ccccc1 | -85* | 0.0 | 2 | -6.1 | -0.6% | -2
CCC1(CC)NC(=O)N(CC(=O)OC(C)C(=O)Nc2ccc(NC(C)=O)cc2)C1=O (configuration not stated) | 28 | 0.5 | -20 | 8.0 | 0.9% | 2
Cc1cccc(OCC(=O)N(Cc2ccccc2)c2c(N)n(Cc3ccccc3)c(=O)[nH]c2=O)c1 | -2 | 0.4 | -1 | -7.5 | -1.0% | -22
CC12CC(NC(=O)N1c1cccc(C(=O)N3CCN(c4ccccc4)CC3)c1)c1ccccc1O2 (configuration not stated) | -1 | 0.8 | 0 | -0.9 | -1.6% | 2
COc1cccc(/C=C/C(=O)NCc2ccc3c(c2)OCO3)c1 | -2 | 2.0 | -8 | -2.6 | 2.4% | -1
C/C(=N\NC(=O)NC1CCCCC1)c1ccc(OC(F)F)cc1OC(F)F | 1 | 0.7 | -17 | 0.2 | 3.6% | -7
Cn1c(Cc2cccs2)n[nH]c1=S | 9 | 0.6 | 22 | 1.3 | -0.5% | 9
CCOC(=O)C1=C(C)N(C2CCCCC2)C(=O)C1 | 9 | -0.7 | -17 | -1.4 | 0.4% | -3
O=C(c1ccccc1SCc1ccccc1)N1CCOCC1 | -14 | -0.9 | -22 | -2.8 | 1.2% | 0
CC1(C)C(=O)N(c2ccccc2)C(=O)c2ccccc21 | 4 | -0.8 | -19 | -1.5 | 1.3% | /
COCCCn1c(C)nnc1SCC(=O)NCc1ccco1 | -2 | 0.0 | -5 | -2.0 | 2.3%[38.3 µM] | 1
NS(=O)(=O)c1cccc(NC(=S)NC(=O)c2cccc([N+](=O)[O-])c2)c1 | -5 | -0.2 | -10 | -6.6 | 2.0% | -14
CC[C@]12C(=O)N(C)C[C@H]([C@@H]3C(=O)N(C)C(=O)[C@@H]31)N2C(=O)c1ccc(F)cc1 | -1 | -0.8 | -1 | -1.5 | 0.2% | 4
O=C(CSc1nnc(-c2ccccc2)o1)N1CCc2ccccc2C1 | 4 | 5.0 | 13 | -1.2 | -0.8% | 4
C(=NN1CCCCCC1)c1cccc2ccccc12 | -20 | 0.9 | -12 | -3.8 | 4.7% | -21
CCCc1cc(=O)[nH]c(SCC(=O)Nc2ccc(Br)cc2)n1 | -3 | 1.4 | 1 | -2.1 | 3.5% | 6
CCOc1ccc2[nH]c3c(N4CCc5ccccc5C4)ncnc3c2c1 | -26 | 0.6 | -9 | ? | 7.6% | -19

Hits appear at their usual frequency; overall some 1.3% were active at least once.
